# Sa RN4220 lethal: growth inhibition of S. aureus RN4220, primary screen, OD600 | 16 h | AID 1259311, 2017 | 330,000 tested, 0.33% active | inhibition, % (test concentration not listed);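 active = z-score of -3 or lower and OD600 up to 0.18 on both plates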;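 also: plate controls were untreated cells for no effect and reference antibiotic for full effect; stock transfer was 100 nL into about 80 µL; one replicate is shown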
# PrP 5UTR inh: inhibition of PrP 5' UTR reporter expression; cell-based PrP 5' UTR mRNA reporter, plate reader; inhibition, % (no concentration beside the values); 340,000 tested, 0.35% active; AID 488862, 2010;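 active = every replicate at 50% or more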;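 also: 0 = median of the neutral control wells; tested in H4 reporter cells; numbers are from one replicate; inactives centre near -14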
# ugtP null kill: growth inhibition of ugtP-null S. aureus, primary screen, RN4220 ugtP deletion, OD600. 16 h; some inactives read as strong as hits. growth inhibition, % (no concentration beside the values). 330,000 tested, 0.54% active. AID 1259309, 2017;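 active = z-score under -3 and OD600 up to 0.15 on both plates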;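 also: plate controls were untreated wells for no effect and antibiotic for full effect; wells of about 80 µL received 100 nL stock; the first replicate is given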
# BJeLR viability: MLPCN primary cell-based screen for lethality selective to Ras in HRASV12 cells. 300,000 tested, 0.17% active. inhibition, % (no concentration beside the values). BJeLR (HRASV12) viability, CellTiter-Glo ATP luminescence, 48 h; reference of the scale not given here;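 active = replicate mean above 50%; inconclusive = above 50% but judged a plate artefact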;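 also: 50 nL library stock added to about 25 µL; numbers are from one replicate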
# Mtb hypoxia rep: PubChem AID 1159583. M. tuberculosis hypoxia-regulated fluorescent reporter, fluorescence. fluorescence inhibition, % (concentration not given with the values). 300,000 tested, 0.1% active;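 active = 35 to 45% if threefold the growth effect, above 45% if 1.5-fold the growth effect; inactive = the rest, general growth blockers included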;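 also: wells of about 50 µL received 100 nL stock; 0% = vehicle wells and 100% = reference inhibitor wells; whole bacteria with a GFP reporter of the hypoxia response; strong numbers were not always called active; many hits fall short of the cut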
# Autofluor counter: compound fluorescence in toxin protease inhibitor counterscreen. fluorescence intensity (no concentration beside the values). AID 624483. compound autofluorescence counterscreen, microsphere flow cytometry; active compounds read high. 360,000 tested, 3.1% active;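 active = at least 3 SD above the mean of all compounds, about 16000 in these data; inconclusive = too few beads counted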;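 also: 100 nL of 1 mM stock went into each well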
# Mtb hypoxia rep growth: second read-out of Mtb hypoxia rep, no call of its own (marks repeat the call); growth inhibition, %; measured here: M. tuberculosis growth (absorbance);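 0% = vehicle and 100% = reference antibiotic; read after six days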
# Numbers without * were called inactive; ? = inconclusive; / = no result given.
SMILES,Sa RN4220 lethal,PrP 5UTR inh,ugtP null kill,BJeLR viability,Mtb hypoxia rep,Mtb hypoxia rep growth,Autofluor counter
CC(C)=CCN1CCC(n2nccc2NC(=O)c2ccccc2Cl)CC1,-2.6,-5,-2,3,0,4,6368
CCN(CCCNC(=O)C1CCN(S(=O)(=O)c2c(C)[nH]c(=O)[nH]c2=O)CC1)c1cccc(C)c1,2.7,4,2,-5,/,/,2506
CCc1c(C)nc2ncnn2c1NC1CCCc2ccccc21 (stereo not drawn),-9.9,6,5,/,14,-2,4127
COc1ccc(NC(=O)[C@H](C)NC(=O)[C@@H]2Cc3ccccc3CN2C(=O)OC(C)(C)C)cc1,3.2,-19,14,8,2,2,5427
CN(CCOc1ccccc1Cl)Cc1ccccc1,5.0,-11,0,4,-2,10,4061
COc1ccc(S(=O)(=O)CCc2nc3ccccc3s2)cc1,1.8,-21,-9,-4,1,3,3227
COc1ccc(/C=C2\N=C(C)OC2=O)cc1OC(C)=O,2.4,-21,10,1,8,2,3555
CS(=O)(=O)c1ccccc1C(=O)N1CCN(S(=O)(=O)c2ccc(C3CCCCC3)cc2)CC1,1.3,-17,-8,/,-4,-2,?
CC1Cc2ccccc2N1C(=O)CSc1nnc2n1C(C)(C)Cc1ccccc1-2 (stereo not drawn),1.1,-7,1,0,5,5,10348
C=CCNC(=O)C(=Cc1ccccc1OCC)NC(=O)c1ccccc1,0.9,/,0,/,-5,-2,/
NC(=S)N/N=C/c1ccc(-c2cc(Cl)cc(Cl)c2)o1,/,-21,/,-18,/,/,2783
O=C(NCC1CC1)c1ccc2c3n(nc2c1)-c1ccc(Cl)cc1CO3,3.1,-67,10,7,9,14,3975
CC1CCCN(C(=S)Nc2ccc(S(=O)(=O)N3CCCCC3)cc2)C1 (stereo not drawn),2.2,-26,7,-20,-3,4,4014
O=C(CN1C(=O)c2ccccc2C1=O)c1ccccc1,3.6,-7,1,-5,/,/,2760
COc1cc(S(=O)(=O)N2CCOCC2)ccc1NC(=O)CSc1n[nH]c(=O)[nH]c1=O,1.0,-20,6,-1,4,5,3221
CCc1ccccc1NC(=O)C1=CN2CCS(=O)(=O)N=C2C=C1,2.4,-15,7,/,8,-1,5750
Cc1ccc(N=c2ssnc2Cl)cc1,0.3,-11,-2,12,0,4,4180
COc1cccc(C(C)NC(=O)Cc2cccs2)c1 (stereo not drawn),1.0,-7,1,-10,2,-4,4246
COc1ccc(S(=O)(=O)N2CCOCC2)cc1NC(=O)CSc1ncccn1,4.0,-22,1,/,4,4,4478
CCOC(=O)c1[nH]c2ccc(Br)cc2c1NC(=O)CCN1CCCC(C)(C)C1,-2.2,-18,-13,-7,-3,5,6860
COc1ccc(NC(=O)Cn2nnc(C(N)=O)c2N)c(OC)c1,-2.2,-21,-4,-6,-1,7,4116
CNC(=O)c1sc(Nc2ccc(OCc3ccccc3)cc2)nc1C,-0.8,-14,-3,-10,8,-1,5045
CN(C)[C@H]1N(C(=O)c2ccc(Br)cc2)N=C2c3ccccc3S(=O)(=O)N21,6.1,-14,4,0,4,13,19842*
Cc1ccc(S(=O)(=O)N=C(N)Nc2nc(C)c3ccc(C)cc3n2)cc1,2.3,/,-7,/,1,9,/
CCOC(=O)c1ccc2[nH]cc(C(C)=O)c(=O)c2c1,2.5,-18,-1,-5,10,7,8883

# 4 entries already listed, arranged by count of non-hydrogen atoms, rising.
SMILES,Sa RN4220 lethal,PrP 5UTR inh,ugtP null kill,BJeLR viability,Mtb hypoxia rep,Mtb hypoxia rep growth,Autofluor counter
COc1cccc(C(C)NC(=O)Cc2cccs2)c1 (stereo not drawn),1.0,-7,1,-10,2,-4,4246
O=C(NCC1CC1)c1ccc2c3n(nc2c1)-c1ccc(Cl)cc1CO3,3.1,-67,10,7,9,14,3975
C=CCNC(=O)C(=Cc1ccccc1OCC)NC(=O)c1ccccc1,0.9,/,0,/,-5,-2,/
CCOC(=O)c1[nH]c2ccc(Br)cc2c1NC(=O)CCN1CCCC(C)(C)C1,-2.2,-18,-13,-7,-3,5,6860

# Next section
SMILES,Sa RN4220 lethal,PrP 5UTR inh,ugtP null kill,BJeLR viability,Mtb hypoxia rep,Mtb hypoxia rep growth,Autofluor counter
Cn1cc(CCC(=O)NCc2cccc(Cl)c2)c2ccccc21,1.8,-21,-2,3,5,3,3240
C=C(C)C1CC=C(C)/C(=N\NC(=O)CNc2cccc3ccccc23)C1 (stereo not drawn),/,-28,/,-3,/,/,2434
NC(=O)COc1ccccc1C(=O)NC12CC3CC(CC(C3)C1)C2,7.0,-14,18,3,9,1,3153
COc1ccccc1NC(=O)Nc1ccccc1C(N)=O,5.3,-17,3,-7,2,0,2671
CCc1ccc(C(=O)/C=C/c2cnn(C)c2C)s1,1.6,-25,0,-4,10,14,9863
COC(=O)CCN1CCN(S(=O)(=O)c2ccc3c(c2)OCCO3)CC1,-2.1,-22,1,/,6,7,?
COc1ccc(CC(=O)Nc2ccc(S(=O)(=O)Nc3ncccn3)cc2)cc1OC,2.7,0,12,3,18,5,4350
COCCN1C(=O)c2ccccc2C(C(=O)Nc2ccc3c(c2)OCCO3)C1c1ccc(F)cc1 (stereo not drawn),6.7,-15,13,4,6,2,4224
COC(=O)C1=CC(C(=O)OC)C2C3=C(C(=O)C24CCCCC4)C(C)n2c(=O)n(C)c(=O)n2C3C1 (stereo not drawn),6.1,/,-7,/,7,12,/
COC(=O)c1ccccc1SCC(=O)Nc1ccc(N2CCOCC2)cc1,-9.0,-28,-7,4,-3,-6,4694
N#Cc1ccc(NN=Cc2ccccc2)c([N+](=O)[O-])c1,-1.4,/,3,/,9,-2,/
Cc1ccc(-c2nc3ccsc3c(=O)[nH]2)cc1,5.8,-34,3,12,5,4,2100
O=C(COC(=O)Cc1ccc(Cl)cc1Cl)NC1CC1,6.4,-18,0,/,7,7,4015
CC(C)C(c1nnnn1C1CCCC1)N1CCN(C(=O)c2ccco2)CC1 (stereo not drawn),3.4,-25,-2,-5,-5,-4,8319
O=C(NCC1CCCC(CNC(=O)Nc2ccc(Cl)cn2)C1)Nc1ccc(Cl)cn1 (stereo not drawn),2.6,-22,-24,1,-1,14,3871
CCOC(=O)C1CCN(C(=O)COC(=O)CNC(=O)c2ccc(OC)cc2)CC1,5.5,-25,2,13,7,4,4126
CCN(CC)S(=O)(=O)c1ccc(NC(=O)CCNC(=O)c2ccco2)cc1,1.6,-20,6,-6,-6,6,3872
C/C(=N\NC(=O)c1ccco1)c1ccc(NC(=O)C(F)(F)F)cc1,/,-20,/,-5,/,/,5124
CC(C)(C)C(=O)OCc1cn(-c2ccccc2)nn1,12,-18,1,10,-3,1,9925
Cc1cccc(Nc2c([N+](=O)[O-])ccc3nonc23)c1,4.6,-6,-5,-10,13,6,3677
C/C(=N\O)C1(C)N(O)C(C)(C)C(c2ccc(Br)cc2)=[N+]1[O-] (stereo not drawn),/,3,/,0,/,/,25595*
C=CCC[C@H](Cc1ccc(F)cc1)C(=O)OC[C@@H](C)NC(=O)[C@@H](CC=C)CC(=O)N[C@@H](CO)Cc1ccccc1,5.7,-13,0,/,-6,3,4050
COc1ccc(C(=O)NNC(=O)CCC(=O)Nc2ccc(C)cc2C)cc1,3.5,-35,-3,6,7,-2,5123
O=C(CN1C(=O)NC2(CCCCCC2)C1=O)c1cccs1,0.2,-24,-2,/,8,11,3458
COc1ccc(N2CC(O)=C(c3nc(-c4ccc(F)cc4)cs3)C2=N)cc1,0.8,-21,-3,-5,8,1,2625
# Carrying on.
SMILES,Sa RN4220 lethal,PrP 5UTR inh,ugtP null kill,BJeLR viability,Mtb hypoxia rep,Mtb hypoxia rep growth,Autofluor counter
Cc1cc(NC(=O)CCOc2ccccc2)no1,1.1,-2,3,-3,/,/,3826
CC1(c2cc(C(F)(F)F)n3nc(C(=O)O)cc3n2)CC1,1.5,-5,-2,-5,4,3,8665
CCNC(=S)Nc1cc(OC)c(NC(=O)c2ccco2)cc1OC,16,-23,5,-3,11,3,4089
CCCn1c2ccccc2c2nnc(SCC(=O)Nc3ncccn3)nc21,-2.7,1,-4,0,/,/,2683
CNC(=O)Nc1ccc2nc(C)sc2c1,3.4,-27,1,-5,2,-6,2107
CCCNS(=O)(=O)c1ccc(NC(=O)Cc2cccs2)cc1,2.9,-16,4,1,/,/,2506
O=C(CSc1nnc(-c2cccc(S(=O)(=O)N3CCCC3)c2)n1-c1ccccc1)Nc1ccc(C(=O)O)cc1,1.4,-16,0,4,5,5,4650
N#CC1c2ccccc2C=CN1C(=O)N(c1ccccc1)c1ccccc1 (stereo not drawn),-0.2,7,-7,/,0,11,3775
O=C(CCC(=O)c1ccc(F)cc1)Nc1ccccc1Cl,5.6,-26,6,-13,-4,2,2201
COc1cccc(C(=O)OCn2nnc3ccccc3c2=O)c1,-1.1,-24,0,-2,-11,9,9491
CC(N=C1NS(=O)(=O)c2ccccc21)C(=O)N1CCc2ccccc2C1 (stereo not drawn),19,-29,-63,-4,17,2,3304
COc1cccc(NC(=O)COC(=O)CCn2c(C)csc2=O)c1,5.1,-13,3,-1,6,2,/
COc1ccc(OC)c(NC(=O)C(=O)NNC(=O)c2cccs2)c1,0.2,-1,6,-3,2,1,2810
COc1ccc(C(=O)CC2(CC(=O)c3ccc(OC)cc3)C(=O)N(C)C(=O)N(C)C2=O)cc1,-0.7,-61,-1,1,/,/,4202
Cc1onc(-c2c(Cl)cccc2Cl)c1C(=O)N1CCOCC1,-1.6,3,0,3,-5,3,3120
Cc1nn(-c2ccccc2)c(Cl)c1C(=O)Nc1nnc(C2CCCCC2)s1,5.5,-13,-15,-3,-2,19,3037
COc1ccc(C(=O)NC(=S)Nc2ccc([N+](=O)[O-])cc2C)cc1OC,3.7,-19,31,1,8,5,9582
C=CCN(CC=C)C(=O)Cc1ccc(F)cc1,4.2,-21,2,9,7,7,6272
COC(=O)C(C)(C)ONC(=O)Nc1ccccc1Cl,3.0,-27,4,0,-4,-12,4663
CC(=O)C12CCCCC1CC1C3CC(C)C4(O)CC(=O)CCC4(C)C3CCC12C (stereo not drawn),7.3,-20,-4,-6,5,-3,3351
Cc1cc(Br)ccc1OCC(=O)NC1CCCC1,-7.1,-17,-11,0,-7,5,6285
COC(=O)CCSCC(=O)N1N=C(c2ccc(Br)cc2)CC1c1cccc(OC)c1OC (stereo not drawn),4.0,-8,0,-1,10,-4,3427
O=C(CSc1ncccn1)NCc1ccccc1Cl,5.1,-47,15,-1,6,0,21734*
COc1ccc(S(=O)(=O)c2c(O)c3ccc(C(=O)Nc4ccccc4)cc3[nH]c2=O)cc1,3.1,-15,10,-12,7,9,5571
CC(C)(C)C(=O)Nc1ccc2c(c1)-c1cc(NC(=O)C(C)(C)C)ccc1C2,6.4,-57,6,1,17,6,10621
# Going on with the list:
SMILES,Sa RN4220 lethal,PrP 5UTR inh,ugtP null kill,BJeLR viability,Mtb hypoxia rep,Mtb hypoxia rep growth,Autofluor counter
CC(=O)n1nc(-c2ccccc2)nc1NCc1ccc(N(C)C)cc1,0.0,-44,4,4,3,6,3626
Cc1ccc(CCNC(=O)C2CCCN(C(=O)N(C)C)C2)cc1 (stereo not drawn),4.9,-22,-1,1,12,5,25529*
CCOC(=O)[C@@H]1[C@H]2COc3cc(OC)ccc3[C@@H]2N2C(=O)N(c3ccc(Br)cc3)C(=O)[C@@]12C,-11,1,-8,-1,12,6,3707
Oc1ccc2ccccc2c1CN1CCN(c2ccccc2)CC1,2.0,-11,-4,3,12,10,9425
CS(=O)(=O)N1CCN(c2ccccc2NC(=O)c2ccc(Br)o2)CC1,-1.0,-14,-7,6,5,-1,10806
COc1ccccc1C1CC(=O)n2c(nc(-c3ccccc3)c2-c2ccccc2)S1 (stereo not drawn),-10,-7,7,-17,-9,-7,1954
Cc1nc(-c2cccc(S(=O)(=O)N3CCC(C)CC3)c2)cs1,0.2,-25,-2,-3,1,-1,3287
CCOc1ccc(CCNC(=O)CSCC(=O)Nc2ccc(OC)cc2)cc1OCC,1.7,-6,-1,/,-2,11,6117
Cc1ccc(S(=O)(=O)/N=C(/Nc2ccc(F)cc2F)c2ccccc2)cc1,3.0,-19,5,1,8,5,6046
O=C1NC(=O)N(Cc2ccc(F)cc2)C(=O)/C1=C\C=C\c1ccco1,0.5,-16,-3,24,6,2,5034
CC(C)(C)c1cc(CCC(=O)NCC2CCCO2)cc(C(C)(C)C)c1O (stereo not drawn),0.5,-13,-3,-3,-2,3,5574
